PABP FP inh: blocks human PABP binding to poly(A) RNA. P11940. inhibition, % at 35 µM. fluorescence polarization. hit rate 1% among 290,000;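 active = 50% or more with normal probe brightness, or confirmed in later tests; inconclusive = above 50% with abnormal brightness, or retests that disagree; inactive = below 50% or failed in later tests; about a fifth of its hits are not listed in these tables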;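 note: calls also rest on retests at 20 µM and on dose response follow-up; controls were probe without protein and protein plus probe with vehicle; some compounds called inactive have numbers as strong as hits; many hits fall short of the cut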
Target sequence (P11940 whole entry, looked up): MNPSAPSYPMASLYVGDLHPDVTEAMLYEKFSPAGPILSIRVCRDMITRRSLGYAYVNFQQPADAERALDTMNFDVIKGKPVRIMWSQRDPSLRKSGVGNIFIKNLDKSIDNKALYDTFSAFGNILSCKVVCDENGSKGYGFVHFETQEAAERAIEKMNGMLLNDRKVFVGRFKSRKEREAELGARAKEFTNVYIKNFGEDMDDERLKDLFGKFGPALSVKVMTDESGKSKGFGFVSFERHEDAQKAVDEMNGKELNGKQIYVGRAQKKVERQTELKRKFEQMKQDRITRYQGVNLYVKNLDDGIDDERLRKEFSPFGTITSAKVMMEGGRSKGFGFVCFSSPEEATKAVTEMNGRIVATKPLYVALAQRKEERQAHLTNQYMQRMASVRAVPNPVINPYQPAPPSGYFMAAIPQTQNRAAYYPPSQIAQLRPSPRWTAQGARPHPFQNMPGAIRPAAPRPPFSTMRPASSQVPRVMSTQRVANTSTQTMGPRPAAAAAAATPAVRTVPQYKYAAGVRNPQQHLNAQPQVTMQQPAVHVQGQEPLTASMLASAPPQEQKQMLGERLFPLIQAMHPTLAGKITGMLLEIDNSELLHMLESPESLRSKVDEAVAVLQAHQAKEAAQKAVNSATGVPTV
Env fusion inh: HIV envelope-mediated fusion inhibition. HeLa-JRFL Env/CEM21 cell fusion, luciferase. inhibition, % at 12.3 µM. hit rate 1.1% among 360,000. AID 651610;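 active = mean replicate inhibition score of at least 50 and every replicate individually at or above 50; inconclusive = only one of the two criteria met; inactive = mean below 50 and not all replicates reaching 50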;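 note: 0% = plate neutral controls and 100% = maraviroc near 300 nM; one replicate is shown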
UUG fidelity: alters start codon recognition fidelity in yeast; S. cerevisiae UUG-firefly luciferase reporter, luminescence/redox ratio; activity score, % at 18.7 µM; hit rate 0.13% among 350,000; AID 602363;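 active = replicate mean at a twofold rise or more, about +100% in these data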;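 note: firefly luciferase made from a UUG start codon reports start codon fidelity; reporter light over untreated wells divided by growth signal over untreated wells; some hits fall short of that in this replicate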
Rce1 inhib: inhibitors of yeast Ras-converting enzyme. Q03530. yeast membranes, quenched prenylated peptide cleavage fluorescence. calls only. hit rate 0.27% among 290,000;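 active = fall in fluorescence gain of 50% or more versus controls, with final raw signal at or below 3038400; inconclusive = same 50% fall but final raw signal above 3038400; inactive = fall in fluorescence gain under 50%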;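 note: plate controls were neutral control wells for no effect and wells lacking membranes for full effect; tested at 10 µM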
Target sequence (Q03530 whole entry, looked up): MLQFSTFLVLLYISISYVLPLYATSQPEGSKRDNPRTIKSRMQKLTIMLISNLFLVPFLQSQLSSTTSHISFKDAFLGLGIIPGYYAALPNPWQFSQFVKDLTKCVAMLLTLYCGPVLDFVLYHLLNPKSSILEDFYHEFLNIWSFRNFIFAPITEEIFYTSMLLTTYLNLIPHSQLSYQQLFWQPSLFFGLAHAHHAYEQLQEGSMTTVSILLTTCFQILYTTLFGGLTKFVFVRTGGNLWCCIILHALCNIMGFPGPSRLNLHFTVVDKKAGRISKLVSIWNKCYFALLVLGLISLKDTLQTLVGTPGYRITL
MT1-MMP act inh: blocks activation of human MT1-MMP | AID 651647 | GFP/RFP ratio change, % at 20 µM | hit rate 0.061% among 360,000 | P50281 | HT1080 RFP-PRO-GFP cells, GFP/RFP ratio fluorescence, overnight; percent of plate control window, DMSO zero;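 active = GFP/RFP ratio change of at least 30% with cell ATP level not reduced by more than half and red fluorescence within 50% of control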; note: strong numbers were not always called active
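Assay system: RFP-PRO-GFP reporter HT1080 cells; read-out basis: GFP/RFP fluorescence ratio; benchmarks: DMSO wells and RFP-L50D-GFP cells; doses: 20 µM single dose, 1% DMSO; schedule: overnight cell settling, then overnight compound exposure, 37 °C, 5% CO2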
eIF4H FP inh: inhibitors of RNA binding by human eIF4H. Q15056. eIF4H fluorescence polarization binding assay. inhibition, % at 35 µM. hit rate 0.94% among 290,000. AID 2012;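 active = 50% or more with normal probe brightness, or confirmed in later tests; inconclusive = above 50% with abnormal brightness, or retests that disagree; inactive = below 50% or failed in later tests; about a fifth of its hits are not listed in these tables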;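 note: calls also rest on retests at 20 µM and on dose response follow-up; 0% = protein and probe with vehicle and 100% = probe without protein; strong numbers were not always called active; many hits fall short of the cut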
CSC inhib: cancer stem cell inhibition; cancer stem cell-like cells viability, luminescence; inhibition, % at 7.5 µM; hit rate 1.1% among 300,000; AID 2717;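 active = mean at 75% or more and at least half the replicates too; inconclusive = mean and replicates disagree; tested in HMLE shEcad cells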;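 note: 0% = median of negative and 100% = median of positive control wells; the first replicate is given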
MT1-MMP act inh RFP: recorded beside MT1-MMP act inh, whose call it bears; RFP signal change, %; measured here: RFP expression control read;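 0 = vehicle wells; hits needed this value within 50% of zero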
* marks the source's active call; other numbers are inactive results; i = inactive; ? = inconclusive; · = no result given.

Value order – PABP FP inh	Env fusion inh	UUG fidelity	Rce1 inhib	MT1-MMP act inh	MT1-MMP act inh RFP	eIF4H FP inh	CSC inhib
> O=C(COC(=O)C1CC(=O)N(Cc2ccccc2)C1)Nc1ccc([N+](=O)[O-])cc1Br (configuration not stated)
 : ·	6	-7	·	-2	3	·	·
> Cc1nnc(SCC(=O)N2CCCc3ccccc32)[nH]c1=O
 : -2	-21	-2	i	6	2	-9	-4
> N#Cc1ccc(CSc2nnc(-c3ccncc3)n2CCc2ccccc2)cc1
 : -6	-76	-19	i	-1	-12	-2	12
> CCN1C(=O)/C(=C\c2ccc3c(c2)OCO3)C(C(=O)OC)=C1C
 : 0	20	-8	i	-6	-2	-8	-7
> Cc1cccc(C)c1N1C(=O)CCC(C)(C)C1=O
 : 18	0	-17	i	2	5	1	3
> CCC(=O)Nc1sc(C(=O)Nc2ccccc2OC)c(C)c1C(=O)OC
 : 3	8	·	i	0	5	3	6
> O=C(Cc1ccccc1)Nc1ccc(NC(=S)NC(=O)c2ccccc2)cc1
 : -9	-28	0	i	1	-4	6	1
> Cc1nnc(N(C)C(=O)c2cnccn2)s1
 : -6	6	-3	i	-1	-1	-11	-1
> CN(CC(=O)OCC(=O)NC(=O)c1cccn1C)S(=O)(=O)c1ccc(Cl)cc1
 : 2	·	3	i	-2	1	7	-4
> Cc1ccc(NC(=O)CNC(=O)c2ccc(C)o2)cc1
 : 9	20	-8	i	-6	-2	2	9
> CCNS(=O)(=O)c1ccc(NC(=O)Cc2ccc(F)cc2)cc1
 : 2	·	-17	i	5	2	4	-12
> COc1ccc([N+](=O)[O-])cc1CSc1nnc(NC(C)=O)s1
 : -2	1	·	i	2	4	0	-24
> O=C(CCCOc1ccc(Cl)cc1)N1CCOCC1
 : 3	-4	-19	i	-4	1	2	-3
> COc1ccc(OCCNc2cc(Cl)ccc2[N+](=O)[O-])cc1
 : 24	·	-10	i	0	0	-1	-2
> O=C(c1ccco1)N1CCN(C2CN(Cc3ccc([N+](=O)[O-])cc3)S(=O)(=O)C2)CC1 (configuration not stated)
 : ·	5	3	·	-2	0	·	·
> O=C(NCC(c1cccs1)N1CCOCC1)C1CCN(S(=O)(=O)c2ccccc2C(F)(F)F)CC1 (configuration not stated)
 : 5	i	-6	i	-2	0	8	-10
> Cc1ccc(NCC(=O)N/N=C/c2ccncc2)cc1
 : -11	8	-11	i	1	3	11	-9
> Cc1ccc(NC(=O)C2CCCN2S(=O)(=O)c2cccc3cccnc23)cc1F (configuration not stated)
 : 11	-10	-10	i	-2	-1	11	-9
> COCCN(CCOC)S(=O)(=O)c1ccc(/C(O)=C(\C#N)c2nc3ccccc3[nH]2)cc1
 : 17	-7	-5	i	0	1	-3	2
> CC1=CC(=O)N(c2cccc3c(N4C(=O)C=C(C)C4=O)cccc23)C1=O
 : ·	-15	-39	·	2	5	·	·
> O=C(CCCn1c(=O)[nH]c2ccsc2c1=O)N1CCN(Cc2ccc3c(c2)OCO3)CC1
 : -6	14	-9	i	-3	-3	6	4
> COc1ccc(CCN2CCCC(CN(C)Cc3cc(OC)c(OC)c(OC)c3)C2)cc1 (configuration not stated)
 : 13	-4	-5	i	0	0	-2	28
> COc1ccc(N2CCN(C(=O)c3ccc(NS(=O)(=O)c4cccc(F)c4)cc3)CC2)cc1
 : 8	5	10	i	6	-7	-4	7
> Cc1ccc(C)c(NS(=O)(=O)c2cc3c4c(c2)CC(=O)N4CCC3)c1
 : ·	-1	30	i	1	6	·	-12
> COc1ccc(N(CC(=O)NC2CCCCC2)C(=O)c2ccc(C)s2)cc1OC
 : 12	-10	17	i	0	2	-6	21
> O=C(Nc1cc(=O)[nH]c2ncnn12)c1ccco1
 : 0	12	-15	i	1	8	7	-17
> Cc1ccc(-c2nnc(C)c(N3CCOCC3)n2)cc1
 : -1	·	1	i	-2	0	-1	-8
> Nc1nonc1OCCN1CCN(c2ccc([N+](=O)[O-])c3cccnc23)CC1
 : -9	-2	-8	i	2	-11	0	3
> CCN(CC)c1ccc([C@H]2[C@@H]3CCCC[C@]3(O)CCN2CC(=O)NCc2ccco2)cc1
 : -9	4	7	i	1	2	5	3
> CSCCCN1CCC(n2nccc2NC(=O)CCCc2ccccc2)CC1
 : -5	·	-13	i	-3	1	-12	-3
> CCCNC(=O)NC(=O)CSc1nc2cc(C(=O)OC)ccc2c(=O)n1-c1ccccc1
 : -5	·	-1	i	0	-1	-12	8
> Cc1ccc(C(=O)NC(=S)NCC(=O)c2ccccc2)cc1
 : -4	-64	-10	i	6	-3	-3	-5
> CNC(=O)COc1ccc(Nc2nnc(-c3ccc(C)c(S(N)(=O)=O)c3)c3ccccc23)cc1
 : 1	9	0	i	6	2	-1	-6
> COC(=O)c1nn(-c2c(C)n(C)n(-c3ccccc3)c2=O)cc1O
 : 5	·	-14	i	8	6	-14	-10
> O=C(OCC(=O)N1CCc2ccccc2C1)c1ccc(O)cc1
 : ·	·	-14	·	1	2	·	-12
> COc1ccc(CN(Cc2cccnc2)S(=O)(=O)c2ccc(-n3cnnn3)c(OC)c2)cc1
 : 4	19	3	i	-2	-3	-1	10
> CC#CCOC(=O)c1c(C)nc2sc3c(c2c1N)CCC(O)C3 (configuration not stated)
 : ·	34	-27	·	5	-17	·	?
> COC(=O)[C@@]1(C)[C@H]2C(=O)N(Cc3ccccc3)C(=O)[C@H]2[C@H]2CN(C)C(=NC3CCCCC3)N21
 : ·	7	10	·	1	-1	·	·
> CC(C)n1nc(C(=O)Nc2cccc(S(=O)(=O)N3CCOCC3)c2)c2ccccc2c1=O
 : ·	5	-4	·	-3	-2	·	·
> Cc1sc(NC(=O)CSc2nnc(C)c(=O)[nH]2)c(C#N)c1C
 : 4	·	-23	i	-3	1	0	·
> CC(=O)Nc1ccc(C(=O)OCc2ccc(Br)cc2)cc1
 : 2	-12	·	i	5	1	3	13
> Cc1ccc(C(=O)NC(Cc2ccc(C(C)(C)C)cc2)C(=O)O)cc1 (configuration not stated)
 : ·	-8	-12	·	-2	3	·	·
> O=S(=O)(Nc1ccc(Cl)cn1)c1ccccc1
 : -2	-5	·	i	-5	-1	0	-12
> COC(=O)c1ccccc1NC(=O)NCc1ccncc1
 : 4	6	·	i	-1	2	5	4
> COc1ccc(OCCSc2nc(C)c(Cc3ccccc3)c(=O)[nH]2)cc1
 : -13	-26	·	i	2	1	-1	1
> O=c1[nH]c(O)c(/C=C2\C=Nc3ccc(Br)cc32)[nH]1
 : 16	4	-3	i	-1	-12	16	-5
> CCOC(=O)C1=CCN(S(=O)(=O)c2ccc(F)cc2)C1c1ccc(Br)cc1 (configuration not stated)
 : ·	55	0	·	5	-2	·	·
> Cc1occc1-c1n[nH]c(=S)n1C
 : -3	-30	·	i	2	5	-3	-11
> COc1ccc(S(=O)(=O)N2CCCCC2)cc1NC(=O)CN1C(=O)NC(C)(C2CC2)C1=O (configuration not stated)
 : ·	7	-7	·	-2	-1	·	·
> Cc1cc2c(cc1S(=O)(=O)CCC(=O)Nc1cccc(C(F)(F)F)c1)OCC(=O)N2
 : 2	1	-13	i	2	-1	10	-21
> COc1cc(-c2nnc(-c3cc(-c4ccccc4)nc4ccccc34)o2)cc(OC)c1OC
 : ·	-10	-19	·	0	-1	·	·
> CC(=O)OCC(=O)[C@@]1(OC(C)=O)[C@@H](C)C[C@H]2[C@@H]3C[C@H](F)C4=CC(=O)C=C[C@]4(C)[C@@]3(F)[C@@H](O)C[C@@]21C
 : -1	i	-6	i	0	1	-2	-12
> CCSc1nnc(NC(=O)Cn2cnc3ccccc3c2=O)s1
 : 0	9	-16	i	0	2	0	-13
> CCOC(=O)c1sc2nc(N3CCOCC3)c3c(c2c1N)CCN(C)C3
 : 17	·	·	i	·	·	7	·
> Cc1n[nH]c(=O)c2c(NC(=O)CSc3nnc(-c4ccco4)n3C)oc(C)c12
 : ·	-3	-12	·	-2	5	·	·
> CC(C)c1ccc(CN(C(=O)/C=C/c2ccco2)C2CCS(=O)(=O)C2)cc1 (configuration not stated)
 : -7	-4	·	i	1	4	-1	-17
> CCc1ccc(S(=O)(=O)NCCc2csc(-c3cccnc3)n2)s1
 : -5	38	-13	i	1	-5	7	-1
> CCN(CC)S(=O)(=O)c1ccc(C(=O)NCc2ccc3c(c2)cc(C)n3C)cc1
 : 2	-30	-11	i	35	56	20	-14
> COc1cc(C(=O)NCC(=O)OCC(=O)c2ccc[nH]2)cc(OC)c1OC
 : 10	-77	-6	i	2	5	3	14
> O=C(CSc1nnc(-c2cccs2)o1)OCc1ccccc1
 : -10	·	·	i	-3	6	-1	-15

The listing continues.
Value order – PABP FP inh	Env fusion inh	UUG fidelity	Rce1 inhib	MT1-MMP act inh	MT1-MMP act inh RFP	eIF4H FP inh	CSC inhib
> OCCN1CCN(c2nc(-c3ccccc3)c3cc(Br)ccc3n2)CC1
 : -3	12	·	i	1	1	0	7
> COc1cccc(C(=O)C2CCCN(C/C=C/c3ccccc3OC)C2)c1 (configuration not stated)
 : 5	-7	-4	i	0	5	-10	9
> O=C(Nc1ccc(F)cc1F)c1c(C(F)(F)F)ccnc1Oc1cccc(C(F)(F)F)c1
 : -6	23	-10	i	0	2	-1	9
> C=Cn1cc[n+](CC(=O)c2ccc(OC)cc2)c1
 : 10	-7	-35	i	4	3	1	0
> Cc1csc(SCC(=O)Nc2cc(S(=O)(=O)N3CCCC3)ccc2Cl)n1
 : 3	·	-7	i	6	2	2	-13
> CC1CCN(S(=O)(=O)N2CCC(C(=O)O)CC2)CC1
 : -2	·	-5	i	0	2	-15	-15
> CCOc1ccc(C(CC(=O)O)NC(=O)c2sc3ccccc3c2Cl)cc1 (configuration not stated)
 : 11	-10	·	i	0	10	-5	14
> O=C(C=Cc1ccccc1)c1c[nH]c2ccccc2c1=O
 : ·	-268	-8	·	-7	-15	·	·
> COc1ccc(NC(=S)N(CCC(C)C)C2CCN(C(C)C)CC2)cc1Cl
 : 12	0	-17	i	12	10	9	12
> COc1ccc(-c2csc(Nc3ccc(S(=O)(=O)Nc4cc(OC)nc(OC)n4)cc3)n2)cc1
 : 11	-49	-18	i	7	-4	1	1
> C[C@@]12C(=O)N(Cc3ccccc3)CC(=O)N1[C@H]1c3ccccc3OC[C@@H]1[C@@H]2c1ccccc1
 : ·	104*	-7	·	-3	-5	·	0
> Cc1nn(C)c(C(=O)N/N=C/c2cccc(Oc3ccccc3)c2)c1Br
 : -13	-14	-3	·	2	-4	-13	-3
> Cc1cc(N2CCOCC2)nc2ccc(NC(=O)CCC(=O)N3CCN(c4ccc(F)cc4)CC3)cc12
 : 7	-8	4	i	4	-6	-12	-12
> COc1cc2c(cc1OC)CN(c1ccc(C(F)(F)F)cn1)CC2
 : 5	-20	-12	i	-1	1	-8	·
> CCNc1nc(SC(C)C(=O)OC)nc(N2CCOCC2)n1 (configuration not stated)
 : -4	23	-1	i	7	7	-8	-1
> CSc1nc(C)c2c(n1)N(c1ccc(O)cc1)CC2
 : -9	-24	0	i	-3	-7	4	-2
> COc1ccc(CC(C)N2CCN(c3ccccc3OC)CC2)cc1OC (configuration not stated)
 : 0	-19	7	i	2	3	-2	15
> O=C(COC(=O)Cc1c(F)cccc1Cl)NCCC1=CCCCC1
 : 1	·	-14	i	3	8	4	4
> COc1cc(NC(=O)COC(=O)[C@@H]2CCCN2S(=O)(=O)c2ccc(Cl)cc2)cc(OC)c1OC
 : 4	·	·	i	0	6	-2	·
> CCOc1ccc(NC(=O)c2ccccc2OCC(=O)c2ccccc2)cc1
 : 3	-183	-6	i	-1	2	-10	12

Not all compounds are listed. The share of hits here may be higher or lower than overall.
